# From PubChem
# RE007 growth inh: less growth of the S. pombe RE007 Vpr strain. Potency, µM (titrated, usually from 92.2 µM), for the others: at the highest dose activity change, negative = less growth. AID 651644. 0.21% of 360,000 active. S. pombe RE007 Vpr strain, BacTiter-Glo ATP luminescence, 24 h; control for the full effect not named in the record; active = well fitted falling curve with a large enough effect; inconclusive = small, poorly fitted or top-dose-only effect; inactive = no such curve, though single readings can be large or run the other way;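 also: % is scaled to controls: 0 for no effect and ±100 for the full control effect; nearly all actives have a fitted effect of over 50% in size; the assay follows cell death caused by Vpr and the record does not say whether a fall means rescue or toxicity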
#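 Fission yeast strain RE007, carrying one chromosomally integrated HIV-1 vpr copy, was seeded at OD 0.01 in PMG+AL medium with 23 nL pinned compound. After 24 h at 30 °C and 99% humidity, viability was read by BacTiter-Glo luminescence.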
# MARV entry inh: inhibitors of Marburg virus binding or cell entry; Marburg virus pseudotyped entry inhibition, cell reporter; control for the full effect not named in the record; about a third of the inactives were read at about 46 µM; Potency, µM (highest dose often 37.8 µM), for inactives: at the top dose activity change, negative = inhibition, usual class: inhibitors; 1.8% of 300,000 active; AID 540276; active = well fitted inhibition curve with a large enough effect; inconclusive = small, poorly fitted or top-dose-only effect, or effect the other way; inactive = flat fitted curve, though single readings scatter; tested in HEK293 cells; about a fifth of its hits are not listed in these tables; also: % is scaled to controls: 0 for no effect and ±100 for the full control effect; luciferase read-out
# NS1 inh: blocks influenza NS1 protein function | S. cerevisiae slowed by influenza A NS1, growth recovery by OD600 | Potency, µM (doses to about 46.1 µM), without a hit: top-dose activity, positive = more growth | 0.4% of 270,000 active; active means well fitted rising curve with a large enough effect; inconclusive means small, poorly fitted or top-dose-only effect; inactive means no such curve, though single readings can be large or run the other way; also: nearly all actives have a fitted effect of over 50% in size
#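 S. cerevisiae expressing influenza A NS1, grown in glucose, washed, then diluted 1:100 into pH 6.0 -URA galactose medium with 23 nl compound. Growth recovery read as OD600; NS1-free strain serves as control.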
# StopGo reporter: FMDV 2A StopGo reporter, luciferase signal | AID 1159524 | 1.2% of 410,000 active | Potency, µM (series often up to 57.9 µM), for inactives: at the top dose signal change, negative = less light | human cells with a luciferase reporter of 2A StopGo recoding; control for the full effect not named in the record; active = well fitted falling curve with a large enough effect; inconclusive = small, poorly fitted or top-dose-only effect; inactive = no such curve, though single readings can be large or run the other way; tested in HEK293T cells; also: % is scaled to controls: 0 for no effect and ±100 for the full control effect; nearly all actives have a fitted effect of over 45% in size; luciferase light after 4 h
# Cruzain noTriton: inhibitors of Trypanosoma cruzi cruzain without detergent. P25779. purified cruzain, Z-FR-AMC fluorescence, no detergent. Potency, µM, for inactives: max response, negative = inhibition, most hits filed as inhibitors. 2.3% of 200,000 active;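 also: plate controls were enzyme without inhibitor for no effect and buffer without enzyme for full effect; nearly all actives have a fitted effect of over 40% in size; top concentration of the series not given in the record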
# Target sequence (P25779 123-467 limits assumed): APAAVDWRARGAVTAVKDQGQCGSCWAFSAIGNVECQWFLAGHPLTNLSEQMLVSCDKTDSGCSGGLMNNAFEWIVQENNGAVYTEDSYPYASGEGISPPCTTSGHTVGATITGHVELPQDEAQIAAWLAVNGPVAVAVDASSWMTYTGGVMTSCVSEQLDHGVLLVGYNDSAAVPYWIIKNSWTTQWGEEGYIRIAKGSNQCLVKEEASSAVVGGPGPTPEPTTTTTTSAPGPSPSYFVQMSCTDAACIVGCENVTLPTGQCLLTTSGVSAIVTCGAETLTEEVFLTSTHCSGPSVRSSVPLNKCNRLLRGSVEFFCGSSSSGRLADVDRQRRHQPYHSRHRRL
#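 Detergent-free condition (0.00005% Triton X-100) in acetate buffer pH 5.5 with DTT. 1.5 nM enzyme and compound were pre-mixed 15 min, then 2 uM Z-FR-AMC substrate added; reaction progress from fluorescence change between first and third reads (60 s).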
# Cruzain inh Det: cruzain (T. cruzi) inhibition with detergent. P25779. purified cruzain, Z-FR-AMC fluorescence, 0.01% Triton. Potency, µM, for inactives: max response, negative = inhibition, usual class: inhibitors. 0.43% of 200,000 active. AID 1478;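 also: plate controls were neutral wells for no effect and buffer without enzyme for full effect; nearly all actives have a fitted effect of over 40% in size; top concentration of the series not given in the record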
#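 Detergent-containing arm of a paired screen for aggregation-based inhibition: 0.01% Triton X-100 present. Cruzain at 1.5 nM cleaved 2 uM Z-FR-AMC at pH 5.5 with 5 mM DTT; AMC fluorescence gain over 60 s measured activity.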
# SARS PLpro yeast: inhibitors of SARS-CoV papain-like protease in yeast. S. cerevisiae expressing SARS-CoV PLpro, growth rescue; control for the full effect not named in the record. Potency, µM (titrated, usually from 32.9 µM), without a hit: at the highest dose activity, positive = growth rescue. 0.19% of 330,000 active. AID 485353; active means well fitted rising curve with a large enough effect; inconclusive means small, poorly fitted or top-dose-only effect; inactive means no such curve, though single readings can be large or run the other way; also: 0% is about no effect; nearly all actives have a fitted effect of over 55% in size; growth read by luminescence after 48 h
# Lassa entry inh: Lassa virus entry inhibition; Lassa virus pseudotype entry inhibition, cell reporter; control for the full effect not named in the record; Potency, µM (top dose mostly 37.9 µM), without a hit: at the highest dose activity change, negative = inhibition, most hits filed as inhibitors; 1.2% of 300,000 active; active means well fitted inhibition curve with a large enough effect; inconclusive means small, poorly fitted or top-dose-only effect, or effect the other way; inactive means flat fitted curve, though single readings scatter; tested in HEK293 cells; also: % is scaled to controls: 0 for no effect and ±100 for the full control effect; nearly all actives have a fitted effect of over 50% in size; luciferase read-out
# The depositor's hits bear a star; ? = inconclusive; . = not tested or not shown; & = joins results of further samples; [ ] = dose if it differs, or a comment. Unless noted, calls follow the shape of the dose curve; as a rule, active = well fitted curve in the direction sought with a large enough effect; inconclusive = small, poorly fitted or top-dose-only effect, or another doubt; inactive = no such curve, though single readings can be large; an effect the other way counts as inactive or inconclusive. Potency is read from the fitted curve at half-maximal effect.
[1] CCC(Sc1nc2c(cnn2-c2ccccc2)c(=O)[nH]1)C(=O)OC (stereo not given)
[2] Cc1cccc(C(=O)N2CCC(=O)N(C(COCc3cccc(Cl)c3)Cc3ccccc3)CC2)c1 (stereo not given)
[3] O=C(CSc1n[nH]c(-c2cccs2)n1)N1CCN(S(=O)(=O)c2ccc3ccccc3c2)CC1
[4] CCOc1ccccc1CN1CCNC(=O)C1CC(=O)N(C)Cc1nonc1C (stereo not given)
[5] O=C(c1cccc(Cl)c1)N1CCN(c2ccccn2)CC1
[6] C=CCn1c(SCC(=O)NCCOC)nc2scc(-c3ccco3)c2c1=O
[7] O=C1N=C(N2CCCCC2)SC1=C1CCCCC1
[8] Cc1[nH]c2ccc(C(=O)N3CCCC3)cc2c1C
compound no.	1	2	3	4	5	6	7	8
RE007 growth inh	-10%	-2%	-11%	0%	-12%	-1%	-12%	-7%
MARV entry inh	.	-8%	?	?	20%	2%	21%	.
NS1 inh	4%	-32%	15%	0%	-5%	2%	-8%	-1%
StopGo reporter	?	47%[activator]	22µM*	-11%	4%	-30%	43%[activator]	-16%
Cruzain noTriton	5%	?	?	.	11%	?	-1%	.
Cruzain inh Det	0.1%	-6.4%	-1.9%	.	1.3%	-5.0%	-6.6%	.
SARS PLpro yeast	13%	9%	0%	-3%	2%	-1%	-9%	2%
Lassa entry inh	.	8.2µM*	?	0%	-10%	-10%	?	.

[9] CCc1ccccc1NS(=O)(=O)c1ccc2[nH]cc(C(=O)NCc3ccco3)c(=O)c2c1
[10] CCOc1ccc(Nc2c(S(=O)(=O)c3ccc(Cl)cc3)cnc3ccc(OCC)cc23)cc1
[11] CCOc1ccccc1C(=O)Oc1cc(C)[nH]c(=O)c1[N+](=O)[O-]
[12] CCOC(=O)Cn1ccc(NC(=O)COc2ccc(F)cc2F)n1
[13] Cc1ccc(-c2csc(/C(C#N)=C(\O)CN3CCN(C(=O)c4ccco4)CC3)n2)cc1
[14] CCn1c(O)c(/C=N/N2CCOCC2)c(=O)n(CC)c1=S
[15] COc1ccc(C(=O)Nc2ccccc2N2CCOCC2)cc1Br
[16] O=C(CSc1nnc(-c2ccncc2)o1)NC1CCCCC1
compound no.	9	10	11	12	13	14	15	16
RE007 growth inh	-3%	.	12%	5%	-16%	4%	-16%	-16%
MARV entry inh	3%	?	.	0%[46.1 µM]	3%	5%	-18%&-18%	.
NS1 inh	-9%	.	-21%	-2%	-11%	-8%	-51%	5%
StopGo reporter	2%	-18%	-17%	7%	-23%	-21%	-20%	-6%
Cruzain noTriton	?	-19%	.	.	?	-15%	6%	.
Cruzain inh Det	1.8%	-5.2%	.	.	-7.8%	-4.7%	-4.3%	.
SARS PLpro yeast	3%	.	9%	-4%	1%	2%	4%	0%
Lassa entry inh	5%	.	.	0%[46.1 µM]	2%	-15%	-11%	.

# Rewritten with two lines to a compound: four of the compounds above.
# Values run as follows: RE007 growth inh, MARV entry inh, NS1 inh, StopGo reporter, Cruzain noTriton, Cruzain inh Det, SARS PLpro yeast, Lassa entry inh
7: O=C1N=C(N2CCCCC2)SC1=C1CCCCC1
 : -12%, 21%, -8%, 43%[activator], -1%, -6.6%, -9%, ?
8: Cc1[nH]c2ccc(C(=O)N3CCCC3)cc2c1C
 : -7%, ., -1%, -16%, ., ., 2%, .
9: CCc1ccccc1NS(=O)(=O)c1ccc2[nH]cc(C(=O)NCc3ccco3)c(=O)c2c1
 : -3%, 3%, -9%, 2%, ?, 1.8%, 3%, 5%
10: CCOc1ccc(Nc2c(S(=O)(=O)c3ccc(Cl)cc3)cnc3ccc(OCC)cc23)cc1
 : ., ?, ., -18%, -19%, -5.2%, ., .

# Other structures
[17] O=C(Nc1cccc([N+](=O)[O-])c1)c1ccc2snnc2c1
[18] O=C(CN1CCN(S(=O)(=O)c2ccc(Br)cc2)CC1)Nc1ccc2c(c1)OCO2
[19] CCOC(=O)c1c(NC(=O)COc2cccc3c2CCN(CC)C3=O)sc2c1CCC2
[20] CCC(C)Nc1nc(-c2cccc(OC)c2O)nc2ccccc12 (stereo not given)
[21] CC(=O)c1[nH]c(C)c(C(=O)NCc2ccc(Cl)cc2)c1C
[22] Cn1c(O)c(C(=O)c2ccccc2F)c(=O)n(C)c1=O
[23] O=C(Nc1cccc(F)c1)c1ccc(S(=O)(=O)N2CCCCC2)cc1
[24] CCOC(=O)c1ccccc1NC(=O)CSc1ccc(-c2sc(-c3ccccc3)nc2C)nn1
compound no.	17	18	19	20	21	22	23	24
RE007 growth inh	4%	18%	12%	-11%	.	3%	1%	.
MARV entry inh	.	2%&2%	?	?	.	-5%	?	.
NS1 inh	-4%	-19%	4%	3%	.	3%	-11%	.
StopGo reporter	-5%	-5%	-16%	28µM*	?	-12%	-20%	-20%
Cruzain noTriton	.	-1%	?	4%	-1%	-2%	.	-5%
Cruzain inh Det	.	-2.2%	-3.1%	5.9%	4.1%	-0.7%	.	-1.0%
SARS PLpro yeast	-7%	-1%	0%	9%	.	14%	-9%	.
Lassa entry inh	.	-1%	-14%	?	21%[46.1 µM]	?	-9%	-23%[46.1 µM]

[25] Cc1nc2sc3c(c2c(=O)n1NC(=O)CCBr)CCCC3
[26] CCN(CC)C(=O)COc1ccc(S(=O)(=O)N2CCOCC2)cc1
[27] CC(=O)N1c2ccc(S(=O)(=O)NCC3CCC(C(=O)Nc4cc(C)ccc4C)CC3)cc2CC1C (stereo not given)
[28] Cc1nnsc1S(=O)c1ccc(Cl)c(Cl)c1 (stereo not given)
[29] NC(=O)CSc1ncc(-c2ccc([N+](=O)[O-])cc2)[nH]1
[30] CNC(=O)/C(C#N)=C/c1ccc(OCCOc2ccccc2)cc1
[31] Cc1ccc(NC(=O)CN2CCC(NC(=O)C3CCCCC3)CC2)c(Br)c1
[32] Cc1cc(C(=O)N(C)Cc2ccc(Br)cc2)no1
compound no.	25	26	27	28	29	30	31	32
RE007 growth inh	2%	6%	.	3%	-14%	6%	-5%	18%
MARV entry inh	.	-3%	.	.	7%	.	-2%	?
NS1 inh	0%	13%	.	6%	.	-3%	-4%	-1%
StopGo reporter	?	13%	?	?	19%	0%	-15%	2%
Cruzain noTriton	.	-3%	?	.	.	.	-13%	4%
Cruzain inh Det	.	-2.5%	0.2%	.	.	.	-2.3%	-2.5%
SARS PLpro yeast	-2%	-4%	.	-1%	-3%	5%	-7%	-1%
Lassa entry inh	.	8%	7%[46.1 µM]	.	?	.	-3%	-1%

# From no. 31 as far as 32, copied from above:
[31] Cc1ccc(NC(=O)CN2CCC(NC(=O)C3CCCCC3)CC2)c(Br)c1
[32] Cc1cc(C(=O)N(C)Cc2ccc(Br)cc2)no1
compound no.	31	32
RE007 growth inh	-5%	18%
MARV entry inh	-2%	?
NS1 inh	-4%	-1%
StopGo reporter	-15%	2%
Cruzain noTriton	-13%	4%
Cruzain inh Det	-2.3%	-2.5%
SARS PLpro yeast	-7%	-1%
Lassa entry inh	-3%	-1%

# The list goes on.
[33] NC1(C(=O)O)CC1
[34] O=C1C=CC2C3C(=O)N(c4ccccc4)C(=O)C3C1N2Cc1ccccc1 (stereo not given)
[35] COc1ccc(-c2cc(C(=O)NCC3CCCO3)c3ccccc3n2)c(OC)c1 (stereo not given)
[36] COC(=O)c1sccc1NC(=O)CSc1ccccc1NS(=O)(=O)c1ccccc1Cl
[37] COc1ccc(CCNC(=O)C2CC(c3cccc(F)c3)=NO2)cc1 (stereo not given)
[38] NNC(=O)c1cnn(-c2ccccc2)c1-n1cccc1
[39] O=C(COc1cccc(NC(=O)c2ccco2)c1)c1ccc(F)cc1
[40] Cn1cnnc1SCc1ccc(C(=O)NN)cc1
compound no.	33	34	35	36	37	38	39	40
RE007 growth inh	-4%[18.4 µM]	-13%	-10%	-16%	-15%	-9%	?	11%
MARV entry inh	24%&24%&24%&3%&24%&24%&24%	?	-18%[46.1 µM]	?	.	?	?	1%[46.1 µM]
NS1 inh	0%	.	23%	10%	-9%	.	-64%	3%
StopGo reporter	-19%&2%	10µM*	-8%	0%	-3%	8%	-5%	-8%
Cruzain noTriton	7%&-11%	.	.	-71%	.	.	-4%	.
Cruzain inh Det	2.0%&3.8%	.	.	-2.8%	.	.	3.0%	.
SARS PLpro yeast	.	.	-3%	2%	1%	4%	-20%	0%
Lassa entry inh	14%	25µM*	-20%[46.1 µM]	?	.	5%	4%	1%

[41] COc1ccccc1NC(=O)c1ccc(N2CC3CC(C2)c2cccc(=O)n2C3)c(NC(=O)c2cccnc2)c1 (stereo not given)
[42] COCCn1c(SCC(=O)NCc2ccco2)nnc1C(C)C
[43] O=C(NNC(=S)NC(=O)c1ccc(F)cc1)c1ccncc1
[44] COC(=O)c1cc(C(=O)OCC(=O)N2c3ccccc3NC(=O)C2(C)C)cc([N+](=O)[O-])c1
[45] COc1ccc(CCN2C(=O)CC(C(N)=O)SC2=Nc2ccccc2)cc1 (stereo not given)
[46] COCCCNc1oc(-c2ccccc2OC)nc1C#N
[47] COCCCNC(=O)C(C)n1c2ccccc2c2cnn(C)c(=O)c21 (stereo not given)
[48] COc1ccc(Cl)c(Cn2c(NCc3ccccn3)nc3c2c(=O)n(C)c(=O)n3C)c1
[49] CN(C)c1ccc(/C=N/NC(=O)c2ccc(CN3C(=O)c4cccc5cccc3c45)cc2)cc1
compound no.	41	42	43	44	45	46	47	48	49
RE007 growth inh	1%	11%	-3%	-5%	-2%	4%	.	2%	.
MARV entry inh	3%[46.1 µM]	23%	-19%	21%	9%[14.2 µM]	-11%	-5%[46.1 µM]	-15%	0%
NS1 inh	5%	3%	.	-3%	-4%	2%	.	.	4.5µM*
StopGo reporter	0%	-12%	-9%	0%	-15%	20%	62%[activator]	-18%	.
Cruzain noTriton	.	15%	.	-19%	.	?	0%	16%	4µM*
Cruzain inh Det	.	-0.3%	.	-4.3%	.	?	-4.7%	1.8%	-1.1%
SARS PLpro yeast	8%	-35%	-18%	12%	0%	-5%	.	-28%	27%
Lassa entry inh	?	?	-1%	15%	-5%	33%[14.3 µM]	2%[46.1 µM]	-3%	.
